# Vaccinia Venus = inhibitors of vaccinia virus (Venus reporter); Vaccinia virus Venus reporter expression, fluorescence; Potency, µM (highest dose often 36.5 µM), without a hit: top-dose activity change, negative = inhibition, most hits filed as inhibitors; 330,000 tested, 0.46% active; AID 720580; active means well fitted inhibition curve with a large enough effect; inconclusive means small, poorly fitted or top-dose-only effect; inactive means no such curve, though single readings can be large or run the other way; tested in A549 cells; note: nearly all actives have a fitted effect of over 30% in size; inactives centre near -10
# Vaccinia mCherry = vaccinia inhibition (mCherry reporter). Vaccinia virus mCherry reporter infection, fluorescence; about a quarter of the inactives have no number. Potency, µM (highest dose often 36.5 µM), for inactives: top-dose activity change, negative = inhibition, most hits filed as inhibitors. 310,000 tested, 0.63% active; active = well fitted inhibition curve with a large enough effect; inconclusive = small, poorly fitted or top-dose-only effect; inactive = no such curve, though single readings can be large or run the other way; tested in A549 cells; note: nearly all actives have a fitted effect of over 35% in size; inactives centre near -10
# An asterisk follows results filed as active; i = inactive; ? = inconclusive; . = not tested or not shown; [ ] = another dose, or the depositor's remark. % is set by controls: 0 for no effect and ±100 for the full control effect; potency is the fitted concentration of half-maximal effect.
SMILES,Vaccinia Venus,Vaccinia mCherry
COc1ccc(N2CCN(CC(=O)c3ccc(O)cc3O)CC2)cc1,-7%,i
O=c1[nH]c2ccccc2nc1/C=C(\O)C1CC1,-14%,-22%
O=C(O)c1c2c(nc3ccc(S(=O)(=O)N4CCC(C(=O)NCc5ccccc5Cl)CC4)cc13)CCCC2,-15%[7.34 µM],-9%[7.34 µM]
N#Cc1cccc(-c2nc(Nc3ccccc3)c3ccccc3n2)c1,0%,i
COc1ccccc1-c1ncn(Cc2cccc(-c3ccccc3)c2)c1-c1ccco1,-22%,?
O=C(CCc1nnc(C2CCCCC2)o1)N1CCC(Oc2cccnc2)CC1,-5%,i
CCC(=O)NC(=S)Nc1ccc(NC(=O)c2cccnc2)cc1,-11%,-22%
COC(=O)[C@H](Cc1ccccc1)NC(=O)N1CCN(Cc2ccccc2)CC1,-2%,-3%
COc1cc(OC)c(OC)cc1CN1CCc2ccccc2C1,-21%,-13%
COc1ccc(C2C(C(C)=O)=C(O)C(=O)N2c2nccs2)cc1OC (stereo not drawn),-7%,-8%
OC(c1ccc(F)cc1)c1nc(-c2cccs2)cs1 (stereo not drawn),7%,16%
CCC(=O)Nc1ccc(C(=O)Nc2ccc3c(c2)OCO3)cc1,-16%,.
Cc1ccccc1C(=O)Nc1nnc(S(=O)(=O)N2CCCCC2)s1,2%,5%
Cc1ccc(Cl)cc1NC(=O)CSc1nc(C)c(C)c(C)c1C#N,-11%,-11%
COc1ccc(C(C(=O)NCC2CCCO2)N(Cc2ccccc2)C(=O)CNC(=O)c2ccco2)cc1OC (stereo not drawn),-16%,-4%
COc1cc(CNC(=O)CCCCCCC(C)C)ccc1O,-16%,-7%
Cc1ccc(OCC(=O)NNC(=O)C2CC(=O)N(c3ccc4c(c3)OCCO4)C2)cc1 (stereo not drawn),-14%,i
Cc1ccc2nc(NC(=O)CSc3nccn3Cc3ccc(Cl)cc3)sc2c1,-19%,-9%
COc1ccc2oc(=O)c(C(=O)NC3CCCCCC3)cc2c1,-6%,-15%
CC1=[N+](C)N(c2ccccc2)C(=O)C1N=Cc1ccc(Cl)cc1 (stereo not drawn),-28%,-10%
Fc1ccccc1OCCCCCN1CCCC1,-4%,-8%
COCCNS(=O)(=O)c1cc(C(=O)O)ccc1OC,-3%,i
CC(Oc1ccc(Cl)cc1Cl)C(=O)Nn1cnnc1 (stereo not drawn),-15%,-22%
O=C(O)c1cc(N2C(=O)CCC2=O)ccc1Cl,-2%,-10%
Cc1c(C(=O)OCC(=O)N(C)c2ccccc2)oc2ccccc12,-24%,-7%

# Part of the list above, with values under each structure:
# Values in the order – Vaccinia Venus, Vaccinia mCherry
Fc1ccccc1OCCCCCN1CCCC1
 : -4%, -8%
COCCNS(=O)(=O)c1cc(C(=O)O)ccc1OC
 : -3%, i

# The main list resumes, repeating the 6 entries before the break.
SMILES,Vaccinia Venus,Vaccinia mCherry
CC1=[N+](C)N(c2ccccc2)C(=O)C1N=Cc1ccc(Cl)cc1 (stereo not drawn),-28%,-10%
Fc1ccccc1OCCCCCN1CCCC1,-4%,-8%
COCCNS(=O)(=O)c1cc(C(=O)O)ccc1OC,-3%,i
CC(Oc1ccc(Cl)cc1Cl)C(=O)Nn1cnnc1 (stereo not drawn),-15%,-22%
O=C(O)c1cc(N2C(=O)CCC2=O)ccc1Cl,-2%,-10%
Cc1c(C(=O)OCC(=O)N(C)c2ccccc2)oc2ccccc12,-24%,-7%
Cc1cc(C(=O)CCC(=O)NCC2COc3ccccc3O2)c(C)s1 (stereo not drawn),-9%,-19%
CCOc1ccc(OCCCC(=O)N(C)CC(=O)Nc2ccc(N3CCOCC3)cc2)cc1,-17%,i
Cc1ccccc1OCC(O)Cn1c(=N)n(CCN2CCOCC2)c2ccccc21 (stereo not drawn),?,27%
Fc1cc(Br)ccc1NC(=S)Nc1ccccc1,-15%,-2%
CCOc1ccc(CCNC(=O)COC(=O)c2ccc(C)c(S(=O)(=O)N3CCOCC3)c2)cc1OCC,-18%,-11%
COc1cc(-c2nc(SCC(=O)Nc3ccc4c(c3)OCO4)c(-c3ccccc3)[nH]2)cc(OC)c1OC,-15%,-16%
Cc1nnc(Cn2cnc3c2c(=O)n(C)c(=O)n3C)o1,-4%,1%
CCN(CC)C(=O)[C@H]1CC(CC(=O)NCCc2ccccn2)C(=O)N2CCc3c([nH]c4ccccc34)[C@]12C (stereo partly drawn),?,-6%
C=CCOc1c(CNn2cn[nH]c2=S)cccc1OC,-4%,-2%
CCOC(=O)c1ccccc1NC(=O)CSc1nc2ncccc2o1,-8%,1%
COc1cccc(NC(=O)Nc2ccccc2Br)c1,-15%,i
NC(=O)C1(N2CCCCC2)CCN(C(=O)CSc2nc3ccccc3o2)CC1,-21%,-16%
O=C(NC1CCCCC1)C1CCN(C(=O)c2ccc(-c3ccccc3)cc2)CC1,-7%,-2%
CC(=O)Nc1ccc(NC(=O)C2CCCN2C(=O)Nc2ccc(F)cc2)cc1 (stereo not drawn),0%,i
On1nnc2ccccc21,10%,i
CCOc1ccccc1NC(=O)CSc1nc2ccccc2nc1Cc1ccc(C)cc1,?,-6%
COc1ccc(-n2c(O)c(C=NCCCn3ccnc3)c(=O)[nH]c2=O)cc1,-5%,-11%
Nc1c(C(=O)Nc2ccc3c(c2)OCCO3)nnn1Cc1ccc(Br)cc1,-26%,i
CC(=O)N(NC(=O)c1ccc(C)cc1)C1CC(=O)N(c2ccccc2Cl)C1=O (stereo not drawn),-7%,-6%
Cc1ccc(NC(=O)Nc2ccc([N+](=O)[O-])cc2)nc1,-2%,-4%
COc1cccc(-n2c(SCc3cc(=O)oc4cc(O)c(O)cc34)nc3ccccc3c2=O)c1,-19%,?
O=c1ccc2cc(S(=O)(=O)NCc3ccc(Br)cc3)ccc2[nH]1,-9%,-3%
CC(C)CCN1CCN(CC(c2ccccc2)c2ccccc2)CC1CCO (stereo not drawn),-3%,i
CC(C)Nc1nc(NC(C)C)nc(C(=O)OCCO)n1,-12%,-12%
CC1(C)CC(=O)c2c(Cc3ccccc3)n[nH]c2C1,-8%,.
# The list continues:
SMILES,Vaccinia Venus,Vaccinia mCherry
C/C=C(/C)C(=O)O[C@H]1[C@@H](O)c2c(ccc3ccc(=O)oc23)OC1(C)C,-13%,?
O=C(c1cc2ccccc2s1)N1CCN(c2ccccn2)CC1,-13%,i
CN(C)CCNC(=S)Nc1ccc(Cl)cc1Cl,-13%,i
CCCCN(C(=O)c1ccc(S(=O)(=O)N2CCC(C)CC2)cc1)C1CCS(=O)(=O)C1 (stereo not drawn),-20%,-23%
Cc1cc(NC(=O)c2cccc(F)c2)no1,-8%,i
CCS(=O)(=O)N1CCc2cc(C(=O)Nc3ccc(C)c(Cl)c3)ccc21,-9%,i
COc1ccccc1C1NC=C([N+](=O)[O-])C=C1[N+](=O)[O-] (stereo not drawn),74%[activator],-20%
O=c1c2ccccc2oc2ccc(-c3ccc4cc[nH]c4c3)cc12,-16%,?
COc1ccc(/C(O)=C2/C(=O)C(=O)N(CCN3CCOCC3)C2c2ccccn2)cc1 (stereo not drawn),-4%,i
COc1ccc2nc(NC(=O)CN3CCOCC3)sc2c1,-5%,-20%
NC(Cc1ccccc1)c1csc(Nc2ccc(C(=O)NCCCO)cn2)n1 (stereo not drawn),-15%,i
CCN1CCN(c2oc(/C=C/c3ccccc3OC)nc2C#N)CC1,-9%,-14%
COc1ccccc1NS(=O)(=O)c1cc(NC(=O)C(C)(C)C)ccc1N1CCOCC1,-10%,-3%
O=C(NC1CCCC1)c1cccc(Cn2cc([N+](=O)[O-])cn2)c1,-7%,i
CC1CCN(c2ncnc3nc[nH]c23)CC1,-10%,28%
CC(C)(C)c1ccc(OC(=O)N2CCCCC2)cc1,-15%,-17%
COC(=O)c1sc2ccccc2c1NC(=O)c1ccc(S(=O)(=O)N2CCC(C)CC2)cc1,-14%,-12%
CCOc1ccc(CCNC(=O)c2ccc(F)c(S(=O)(=O)N3CCOCC3)c2)cc1OCC,-12%,-14%
CCCCOc1ccc(C(=O)NCCc2sc(-c3cccc(F)c3)nc2C)cc1,-20%,-10%
CCOC(=O)N1CCC(Nc2nc3ccccc3n3nnnc23)CC1,1%,i
CC(Oc1ccccc1)c1ccnn1S(=O)(=O)c1ccccc1 (stereo not drawn),-7%,-6%
CC(C)NC(=O)C1CC(=O)N(C(C)c2ccccc2)C1 (stereo not drawn),-10%,-12%
NC(=O)[C@@H]1CC2(CC(c3cccc(NC(=O)CC(c4ccccc4)c4ccccc4)c3)=NO2)CN1C(=O)COc1ccc(Cl)cc1 (stereo partly drawn),?,i
CCCC(C)(C)C(=O)N1CCC1(C)C(=O)Nc1cccc2ccccc12 (stereo not drawn),-2%,11%
COc1ccccc1C1CN(CCNC(=O)c2sccc2Cl)Cc2ccccc2O1 (stereo not drawn),4%,-13%

# Complete entries, quoted from the list.
# C/C=C(/C)C(=O)O[C@H]1[C@@H](O)c2c(ccc3ccc(=O)oc23)OC1(C)C reads Vaccinia Venus: -13%; Vaccinia mCherry: ?
# CC1CCN(c2ncnc3nc[nH]c23)CC1 reads Vaccinia Venus: -10%; Vaccinia mCherry: 28%

# New compounds follow
SMILES,Vaccinia Venus,Vaccinia mCherry
CCN(C(=O)c1cc(OC)c(OC)c(OC)c1)C1CCCCC1,-9%,i
COC(=O)C1C(=O)C2=C(CC1C)NC(C)=C(C(=O)OC1CCCCC1)C2c1ccc(N(C)C)cc1 (stereo not drawn),-7%,-24%
CCOC(=O)C1=C(C)N=c2s/c(=C/c3cccc([N+](=O)[O-])c3O)c(=O)n2C1c1ccccc1 (stereo not drawn),28%,-25%
COc1cc(/C=C/C(=O)O)cc(S(=O)(=O)N2CCCc3ccccc32)c1OC,-5%,-1%
CCOc1ccc(/C=C2\SC(=S)N(CCC(=O)Nc3ccccc3C(=O)O)C2=O)cc1,-1%,i
NS(=O)(=O)c1cccc(NC(=O)CN2CCN(Cc3ccc4c(c3)OCO4)CC2)c1,-10%,i
CCc1nc2ccc(C(=O)NCCNC(C)=O)cn2c1N(CC)Cc1cccc(Br)c1,-4%,0%
C=C1C(=O)[C@]23C[C@H]1CCC2[C@@]1(C)C(C[C@@H]3O)[C@](C)(C(=O)O)C[C@H](O)[C@@H]1O (stereo partly drawn),1%,13%
OC(CNCCc1ccc(C(F)(F)F)cc1)COc1ccc2ccccc2c1 (stereo not drawn),?,-22%
CC(CCc1ccccc1)NC(=O)C1CCN(S(=O)(=O)N2CCCCC2)CC1 (stereo not drawn),-12%,i
CCOC(=O)C1CCN(Cc2ccc(OCc3ccccc3)c(OC)c2)CC1,-2%,i
CS(=O)(=O)N(CC(=O)N1CCCC1)C1CCCCC1,-3%,i
O=C1CN(C(=O)c2ccccc2)c2ccccc2N1,-5%,-12%
COc1ccc(CCNC(=O)c2cc(-c3ccccc3)nc3ccccc23)cc1OC,15%,9%
CCOC(=O)N1CCC(Nc2ncnc3c2cnn3-c2ccc(Cl)cc2)CC1,-7%,-7%
Cn1c(=O)c2c(nc3n(-c4ccc(O)cc4)c(-c4ccc(Br)cc4)cn23)n(C)c1=O,2%,10%
COCCOC(=O)c1sc(=S)n(CCOC)c1N,0%,i
Cc1ccc(C(=O)N2CCc3cc(CNC(=O)COc4ccccc4)ccc32)cc1,?,i
C=CCn1c(SCC(N)=O)nnc1-c1cnccn1,-2%,i
O=[N+]([O-])c1ccc(N2CCC(O)CC2)nc1,-16%,-2%
Cc1nn2c(C)c(C(=O)Nc3ccccc3)cnc2c1C#N,-16%,-12%
COc1cc(CC(=O)OCC(=O)NC2CC2)cc(OC)c1OC,7%,2%
CCN(CC)S(=O)(=O)c1ccc2c(c1)N(CC(=O)N1CCN(c3ccc(Cl)cc3)CC1)C(=O)CO2,-8%,-12%
COc1ccccc1C(=O)NC(=O)COC(=O)c1nccnc1N,-16%,-5%
CN(C)S(=O)(=O)c1ccc(NC=C(C#N)C#N)cc1,-4%,-13%
# Continuation:
SMILES,Vaccinia Venus,Vaccinia mCherry
Cc1noc(C)c1S(=O)(=O)Nc1ccc2c(c1)C(=O)N([C@H](C)CO)C[C@H](C)[C@H](CN(C)C(=O)NC(C)C)OCCCC[C@@H](C)O2,2%,i
Cc1ccc(C(=O)CN(CCC(=O)O)S(=O)(=O)c2ccc([N+](=O)[O-])cc2)cc1,-9%,i
Cc1c(C(=O)C(=O)N2CCN(C)CC2)c2ccccc2n1C,-9%,i
c1ccc2sc(NC3=NCN(CC4CCCO4)CN3)nc2c1 (stereo not drawn),-9%,i
O=C1Cc2cc(NS(=O)(=O)c3ccc(F)cc3)cc3c2N1CCC3,-12%,i
Cc1[nH]nc2c1/C(=N\O)CCC2,-3%,i
COc1ccc(C2CC(c3ccc(C(F)(F)F)cc3)=NN2c2ccc(S(N)(=O)=O)cc2)cc1 (stereo not drawn),-22%,?

# Taken from above.
# Under Vaccinia Venus, Cc1noc(C)c1S(=O)(=O)Nc1ccc2c(c1)C(=O)N([C@H](C)CO)C[C@H](C)[C@H](CN(C)C(=O)NC(C)C)OCCCC[C@@H](C)O2 has the entry 2%
# Under Vaccinia Venus, Cc1[nH]nc2c1/C(=N\O)CCC2 has the entry -3%

# Screening results as filed in PubChem BioAssay.
